# N370S GC mod = inhibitors or activators of N370S glucocerebrosidase for Gaucher disease. N370S GC spleen homogenate, 4MU-glucoside fluorescence. Potency, µM (highest dose often 59.4 µM), for inactives: top-dose activity change, negative = inhibition, actives largely listed as inhibitors. actives 0.092% (n = 330,000);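 further: 0% = full enzyme activity and -100% = no enzyme basal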
# FEN1 inh = human FEN1 inhibition; P39748; Recombinant FEN1 flap cleavage, fluorescence, 15 min; Potency, µM (top dose mostly 114 µM), for the others: at the highest dose activity change, negative = inhibition, hits mostly inhibitors; actives 0.35% (n = 390,000); AID 588795; further: nearly all actives have a fitted effect of over 65% in size
# Target sequence (P39748 whole entry, looked up): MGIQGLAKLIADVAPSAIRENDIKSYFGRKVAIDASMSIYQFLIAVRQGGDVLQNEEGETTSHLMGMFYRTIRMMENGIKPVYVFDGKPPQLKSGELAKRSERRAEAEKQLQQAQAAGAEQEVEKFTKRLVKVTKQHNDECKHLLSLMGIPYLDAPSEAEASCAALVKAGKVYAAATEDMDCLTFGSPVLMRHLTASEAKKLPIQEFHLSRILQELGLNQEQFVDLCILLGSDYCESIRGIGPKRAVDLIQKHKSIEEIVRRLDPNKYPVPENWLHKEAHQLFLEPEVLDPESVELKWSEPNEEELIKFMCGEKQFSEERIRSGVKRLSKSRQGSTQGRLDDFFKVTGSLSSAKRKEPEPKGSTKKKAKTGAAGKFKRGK
#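 Enzyme 10 nM, 15 min RT preincubation with compound; start with substrate 50 nM final; reads at 0 and 15 min; qHTS titration, four-parameter Hill fit.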
# * hit, by the source's call; u = inconclusive; x = no result given; & = joins results of further samples; [ ] = remark or other dose. The call rests on the fitted dose curve; in most records, active means well fitted curve in the direction sought with a large enough effect; inconclusive means small, poorly fitted or top-dose-only effect, or another doubt; inactive means no such curve, though single readings can be large; an effect the other way counts as inactive or inconclusive. Unless noted, on the % scale 0 is the no-effect control and ±100 the full control effect; potency means the concentration at half of the fitted maximal effect. An excerpt, and most or all hits are left out here.
# The first four records as a preview:
SMILES,N370S GC mod,FEN1 inh
COc1ccccc1C(=O)NC(CCSC)C(=O)NCCCn1nc(C)cc1C (stereo not given),5%,5%
C=CCOc1ccc(/C=C2\SC(=Nc3cccnc3)NC2=O)cc1,4%,1%
COc1ccccc1NC(=O)CN(Cc1ccccc1)S(C)(=O)=O,-1%,0%
N#Cc1c(N)nc(SCc2ccncc2)c(C#N)c1-c1cccs1,12%,-17%

# Results, from the start:
SMILES,N370S GC mod,FEN1 inh
COc1ccccc1C(=O)NC(CCSC)C(=O)NCCCn1nc(C)cc1C (stereo not given),5%,5%
C=CCOc1ccc(/C=C2\SC(=Nc3cccnc3)NC2=O)cc1,4%,1%
COc1ccccc1NC(=O)CN(Cc1ccccc1)S(C)(=O)=O,-1%,0%
N#Cc1c(N)nc(SCc2ccncc2)c(C#N)c1-c1cccs1,12%,-17%
Cc1ccc(NC(=O)CSCC(=O)NNC(=O)c2nn(C)c(=O)c3ccccc23)cc1,x,2%
COc1ccc(S(N)(=O)=O)cc1C(=O)NCC(C)(C)N1CCOCC1,2%,-13%
COc1cc(C)c(S(=O)(=O)NCc2cccs2)cc1C,0%,-4%
Cc1cc2c(c(=O)n1Cc1cccnc1)C(Cc1ccccc1)C(C#N)=C(N)O2 (stereo not given),2%,6%
COc1cccc(N2CC(C(=O)NC3CCCCC3)CC2=O)c1 (stereo not given),-4%,0%
CC1CCN(CCCNC(=O)c2ccc(N3CCCC3=O)cc2)CC1,-4%,3%
CCOC(=O)c1ccc(Nc2ncnc3c2cnn3-c2cccc(Cl)c2)cc1,x,-4%
CCN(CC)CCNC(=O)c1ccc2c(c1)sc1nc(-c3ccc(F)cc3)cn12,x,3%
CS(=O)(=O)N(CC(N)=O)Cc1ccc(Cl)cc1,4%,9%
CC(=O)Nc1nnc(CCN2CCCCC2)s1,-7%,-3%
CCn1c(SCC(=O)NCC2CCCO2)nc2c(c1=O)SCC2 (stereo not given),-6%,0%
COc1ccc(CNC(=O)c2cc(COc3c(F)cccc3F)on2)cc1OC,4%,-17%
CCOc1ccccc1NC(=O)CSc1nnc(CC)c(CC)n1,x,0%
O=C(Nc1cccc(-c2cccc(F)c2)c1)C1CCN(CC2CCOC2)CC1 (stereo not given),-23%,2%
CC(C)(C)NC(=O)C(c1ccc(OCC(N)=O)cc1)N(C(=O)c1cccnc1)C1CC1 (stereo not given),1%,11%
NC(=O)C1CCN(c2ccc(C(F)(F)F)cc2[N+](=O)[O-])CC1,9%,3%
CCOC(=O)C1=C(c2ccccc2)OC(N)=C(C#N)C1C1CCCCC1 (stereo not given),11%,u
CCC(NC(=O)c1cc(COc2cncc(Cl)c2)on1)c1ccc(C)cc1 (stereo not given),7%,-5%
O=C(Cc1c[nH]c2ccccc12)NCC(=O)Nc1ccc(F)c(F)c1F,x,5%
Cc1onc(-c2ccccc2)c1C(=O)N/N=C/c1ccc([N+](=O)[O-])c(O)c1,-12%,7%
O=S(=O)(c1cnc[nH]1)N1CCN(c2ccccc2)CC1,4%,1%
# Next structures follow.
SMILES,N370S GC mod,FEN1 inh
CC1(C)CC(=O)C=C(c2ccc3ncccc3c2)C1,x,-12%
CCN(C(=O)COC(=O)c1nc2nc(C)cc(C)n2n1)C1CCCCC1,2%,10%
CC(N)C12CC3CC(CC(O)(C3)C1)C2 (stereo not given),-4%,-1%
c1ccc(Oc2cccc(OCCCCN3CCCC3)c2)cc1,-9%,12%
Cc1c(S(=O)(=O)Nc2cccc(Cl)c2)c(=O)n(C)c(=O)n1C,7%,-4%
COc1ccc(CC2(CO)CCN(Cc3c(C)nn(C(C)C)c3C)CC2)cc1,-1%,2%
NC(=O)N/N=C/c1ccccc1OCC(=O)NCc1ccccc1,-6%,1%
C/C(=N/NC(=O)CN1CCN(Cc2ccccc2)CC1)c1ccc([N+](=O)[O-])cc1,-8%,2%
Cc1ccccc1N1CCN(C2=NC(=O)/C(=C/c3cn[nH]c3-c3ccccc3)S2)CC1,-1%,-1%
C#CCOC(=O)C[N+](C)(C)C/C=C/c1ccccc1,1%,0%
O=C(Nc1cccc(C(F)(F)F)c1)C1(c2ccccc2)CC1,-5%,-7%
CCOc1ccccc1NC(=O)COn1nnc2ccc(Cl)cc21,2%,11%
CCOC(=O)Cc1csc(NC(=O)c2ccc(S(=O)(=O)N3CCCCC3)cc2)n1,-30%,-18%
Cc1ccc2c(c1)N(S(=O)(=O)c1cc(-c3onc(C)c3C)ccc1C)CCO2,1%,0%&10%
COc1ccc(NC(=O)CN(C)C(=O)CCCc2nc3ccccc3s2)cc1,2%,2%
CCOc1ccc(Oc2ccc(S(=O)(=O)N3CCOCC3)cc2NC(=O)C2=COCCO2)cc1,-2%,-13%
CC(=O)c1nn(-c2ccccc2)cc1C(=O)c1cccc(Br)c1,-6%,21%
Cn1c(SCC(=O)NC2CCCCC2)nnc1-c1cc2ccccc2o1,-4%,6%
O=C(/C=C/c1ccco1)Nc1cccc2cccnc12,-8%,u
O=C(O)c1ccc(Nc2cnc3ccccc3n2)cc1,-2%,4%
COc1cc(C2C3=C(CC(C)(C)CC3=O)N(C)C3=C2C(=O)CC(C)(C)C3)cc(Br)c1O,-3%,20%
COc1ccc(NC(=O)C(C)SCc2ccccc2)cc1OC (stereo not given),3%,-3%
COC(=O)Cn1c(=O)c2c(nc3n2CC(C)CN3c2ccc(C)c(C)c2)n(C)c1=O (stereo not given),-3%,-14%
CCCN(CC(=O)Nc1ccccc1C)C(=O)C1CCCN(C(=O)c2ccc(Cl)cc2)C1 (stereo not given),x,-2%
COc1ccc(N2CC(C(=O)Nc3ccc4c(c3)OCCO4)CC2=O)cc1 (stereo not given),-4%,-3%
# Additional structures
SMILES,N370S GC mod,FEN1 inh
COc1cc(C(=O)NC2CCCc3c2cnn3-c2ccccc2F)cc(OC)c1OC (stereo not given),4%,-9%
C[C@H]1COC(=O)[C@H](CC(=O)OC(C)(C)C)C/C=C\C[C@H](CC(=O)N(CCO)Cc2ccccc2)C(=O)N1,x,-9%
Cc1ccc(N2CC(C(=O)N3CCOCC3)CC2=O)cc1Cl (stereo not given),8%,14%
COc1cc(CC(=O)O)ccc1OCc1ccccc1,-22%,16%
CCCc1ccc(OCc2ccc(C(=O)N3CCSCC3)o2)cc1,u,-17%
CSc1ccccc1OCc1cc(C(=O)NCc2cccc(C)n2)no1,-25%,14%
O=C(COC(=O)C1CCN(S(=O)(=O)c2c(Cl)cccc2Cl)CC1)NCc1ccco1,-14%,6%
COc1ccccc1CCc1nnc(N)s1,-10%,15%
O=C(Cc1ccc([N+](=O)[O-])cc1)N1CCCc2ccccc21,u,-2%
Cc1cc(=O)cc2oc3cc(N)c(-c4c(C)cc(O)cc4O)c(C)c3nc1-2,1%,x
O=C1C=C(NCc2ccc(Cl)cc2)CC(c2ccco2)C1 (stereo not given),-6%,-15%
Cn1cccc1/C=C1\SC(=O)N(CC(=O)Nc2ccc(F)cc2)C1=O,12%,-5%
CCOc1cc(Cl)c(NC(=O)CC)cc1OCC,-18%,-3%
COc1ccccc1OCCCOc1ccc(C)cc1Br,4%,-2%
CCc1cccc(NC(=O)C2CCCN(c3ncnc4c3nc3n4CCCCC3)C2)c1 (stereo not given),6%,-25%
COc1ccc(S(=O)(=O)NCc2cccs2)cc1,0%,-5%
Oc1ccccc1/C=N/Nc1ncc(Br)cn1,-1%,-5%
CN(C(=O)CN1C(=O)NC(C)(c2cccc(Br)c2)C1=O)C1CCCCC1 (stereo not given),x,-2%
CC(C)COc1ccc(N)cc1OCC(C)C,16%,-7%
COc1ccc(C(=O)CC(=O)C(=O)Nc2ccccc2)cc1,-2%,-3%
Cc1cc(C(=O)Nc2cccc3ccccc23)n(-c2ccccc2)n1,7%,-20%
CCOc1ccccc1N(CC)C(=O)Cn1ncc2c([nH]c3ccccc32)c1=O,x,-1%
COc1cccc(C(=O)Cn2c(N3CCOCC3)nc3c2c(=O)n(C)c(=O)n3C)c1,-14%,0%
O=S(=O)(c1ccc(Cl)cc1)N1CCN(C(=S)NCC2CCCO2)CC1 (stereo not given),-3%,-10%
CN1CC=C2C(C#N)=C(N)C(C#N)(C#N)C(CCc3ccccc3)C2C1 (stereo not given),-3%,-1%

# Three compounds from above, sorted by the number in N370S GC mod, highest first.
SMILES,N370S GC mod,FEN1 inh
CCC(NC(=O)c1cc(COc2cncc(Cl)c2)on1)c1ccc(C)cc1 (stereo not given),7%,-5%
COc1ccccc1C(=O)NC(CCSC)C(=O)NCCCn1nc(C)cc1C (stereo not given),5%,5%
CC(C)(C)NC(=O)C(c1ccc(OCC(N)=O)cc1)N(C(=O)c1cccnc1)C1CC1 (stereo not given),1%,11%

# Retrieved one by one from the entries so far (5):
SMILES,N370S GC mod,FEN1 inh
C/C(=N/NC(=O)CN1CCN(Cc2ccccc2)CC1)c1ccc([N+](=O)[O-])cc1,-8%,2%
COc1ccc(C(=O)CC(=O)C(=O)Nc2ccccc2)cc1,-2%,-3%
COc1ccccc1NC(=O)CN(Cc1ccccc1)S(C)(=O)=O,-1%,0%
C=CCOc1ccc(/C=C2\SC(=Nc3cccnc3)NC2=O)cc1,4%,1%
Cc1cc2c(c(=O)n1Cc1cccnc1)C(Cc1ccccc1)C(C#N)=C(N)O2 (stereo not given),2%,6%

# Going on with the list:
SMILES,N370S GC mod,FEN1 inh
COc1ccccc1S(=O)(=O)Cc1ccc(C(=O)N2CCN(c3ccc(C)cc3)C(C)C2)o1 (stereo not given),10%,10%
Cc1occc1-c1nnc(SCC(=O)O)n1-c1ccccc1,13%,1%
Cc1nn(Cc2ccc(F)cc2)c2sc(C(=O)Nc3ccc(N4CCOCC4)cc3N3CCOCC3)cc12,-19%,-13%
CCCS(=O)(=O)N1CCc2ccc(NC(=O)c3ccccc3Cl)cc2C1,0%,5%
COc1ccc(C2(CNC(=O)c3ccc(Br)o3)CCOCC2)cc1,-1%,-4%
CC1=CC[C@@]23CCCN2C(=O)CCC[C@H]3C1,-7%[136 µM],16%
N#C/C(=C/c1ccc2c(c1)OCO2)C(=O)Nc1ccc(O)cc1,-12%,-12%
COc1cc(NC(=S)N2CCCC(C)C2)cc(OC)c1OC (stereo not given),12%,11%
COc1cccc(N2C(=O)C3CCCN3C2=S)c1 (stereo not given),4%,14%
COC(=O)C(O)C1C(C)(C)C(OC(C)=O)C2CC3=C4CC(=O)OC(c5ccoc5)[C@]4(C)CCC3[C@@]1(C)C2=O (stereo not given in full),2%,x
CC(CC(=O)O)CC1=NS(=O)(=O)c2ccccc2N1 (stereo not given),5%,-1%
COc1ccc(-c2nnc(SCC(=O)N(C)C3CCS(=O)(=O)C3)n2N)cc1OC (stereo not given),-1%,-12%
COc1ccc(N2CCN(C(=O)CCCNC(=O)Cn3cnc4sc(C)c(C)c4c3=O)CC2)cc1,-2%,5%
CC(=O)NCCc1ccc(S(=O)(=O)N2CCOCC2)cc1,-8%,9%
COC(=O)c1ccc(OCC(=O)NC(C)(C)C)cc1,-4%,4%
CCOC(=O)N1CCC(N2CCN(c3cc(C)ccc3C)CC2)CC1,11%,-4%
Cc1ccccc1OCC(=O)Nc1nc2ccccc2[nH]1,-17%,0%
Oc1ccc(Br)cc1CNc1nccs1,2%,-9%
O=C1CC(c2ccccc2)n2nc(NC(=O)c3ccccn3)nc2N1 (stereo not given),15%,9%
Cc1cc2c(n1-c1ccc(Br)cc1)CC(C)(C)CC2=O,7%,-1%
C=C1C(=O)O[C@H]2C1CC[C@@](C)(O)C13C=CC(C)(C21)C1(C3)C(=O)O[C@@H]2C3C(C)=CCC3[C@](C)(O)C[C@H](OC(C)=O)C21 (stereo not given in full),-1%,-1%
O=C(CCCC(=O)N1CCN(c2cccc(Cl)c2)CC1)c1ccccc1,-5%,-25%
O=C(OCc1nc2ccccc2s1)c1ccc(Br)o1,2%,-23%
COc1ccc(CN(C)CC2CCCN(CCc3ccc(F)cc3)C2)c(OC)c1OC (stereo not given),-6%,15%
COc1ccc(OC)c(C(c2nnnn2Cc2ccccc2)N2CCC(C(N)=O)CC2)c1 (stereo not given),8%,-4%
# Continuation.
SMILES,N370S GC mod,FEN1 inh
COC(=O)Nc1ccc2c(c1)N(C(=O)CCCl)c1ccccc1S2,1%,7%
CCN1C(=O)c2cccc3c(NS(=O)(=O)c4ccc(NC(C)=O)cc4)ccc1c23,0%,-9%
O=C(Cn1cccn1)N1CCCC(N2CCN(c3cccc(C(F)(F)F)c3)CC2)C1 (stereo not given),-1%,-4%
CN(C)c1cccc(NC(=O)CCc2ccccc2)c1,6%,1%
COc1ccccc1N1CCN(C(=O)Cn2c(=O)n3nc(-c4cccc(F)c4)nc3c3ccccc32)CC1,x,0%
CCn1c(=O)n(CC)c2cc(N3CCCC3)c(NC(=O)c3ccccc3F)cc21,1%,-21%
CC(=O)Nc1ccc(OCC(=O)NC(C)C(C)C)cc1 (stereo not given),2%,2%
N#CCCN(Cc1cccnc1)C(=O)c1sc2cc(F)ccc2c1Cl,9%,31%[activator]
CCc1ccc(-c2cc(C)no2)cc1S(=O)(=O)N1CCN(c2ccccc2OC)CC1,3%,9%
COc1ccc(C(=O)Nc2ccc3cn[nH]c3c2)c(OC)c1,-1%,2%
CCC1CCCCN1C(=O)c1ccc(OC2CCN(Cc3ccccn3)CC2)cc1 (stereo not given),-2%,-9%
Cc1ccc2oc(=O)n(CC(=O)N3CCOCC3)c2c1,1%,0%
CC(NCCC1(C(C)C)CCOC(C)(C)C1)c1cccs1 (stereo not given),8%,5%
O=C(c1ccc2c(c1)OCO2)N(c1ccc(Cl)cc1)C1C=CS(=O)(=O)C1 (stereo not given),0%,-1%

# High-throughput results deposited in PubChem BioAssay by National Center for Advancing Translational Sciences (NCATS).
